UUG fidelity: modulators of start codon recognition fidelity in yeast | S. cerevisiae UUG-firefly luciferase reporter, luminescence/redox ratio | activity score, % at 18.7 µM | actives 0.13% (n = 350,000);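 active means replicate mean at a twofold rise or more, about +100% in these data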;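 further: firefly luciferase made from a UUG start codon reports start codon fidelity; reporter light over untreated wells divided by growth signal over untreated wells; some hits fall short of that in this replicate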
eIF4H inh: inhibitors of RNA binding by human eIF4H; Q15056; eIF4H fluorescence polarization binding assay; inhibition, % at 35 µM; actives 0.94% (n = 290,000); AID 2012;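 active means 50% or more with normal probe brightness, or confirmed in later tests; about a fifth of its hits are not listed in these tables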;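 further: calls also rest on retests at 20 µM and on dose response follow-up; 0% = protein and probe with vehicle and 100% = probe without protein; strong numbers were not always called active; many hits fall short of the cut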
HIV Env fusion: inhibitors of HIV Env-mediated cell fusion. HeLa-JRFL Env/CEM21 cell fusion, luciferase. inhibition, % at 12.3 µM. actives 1.1% (n = 360,000). AID 651610;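 active means mean replicate inhibition score of at least 50 and every replicate individually at or above 50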;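 further: 0% = plate neutral controls and 100% = maraviroc near 300 nM; one replicate is shown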
PABP polyA inh: PABP-poly(A) binding inhibition; inhibition, % at 35 µM; AID 2014; actives 1% (n = 290,000); PABP-poly(A) RNA binding, fluorescence polarization;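 active means 50% or more with normal probe brightness, or confirmed in later tests; about a fifth of its hits are not listed in these tables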;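 further: calls also rest on retests at 20 µM and on dose response follow-up; controls were probe without protein and protein plus probe with vehicle; some compounds called inactive have numbers as strong as hits; many hits fall short of the cut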
Target sequence (P11940 whole entry, looked up): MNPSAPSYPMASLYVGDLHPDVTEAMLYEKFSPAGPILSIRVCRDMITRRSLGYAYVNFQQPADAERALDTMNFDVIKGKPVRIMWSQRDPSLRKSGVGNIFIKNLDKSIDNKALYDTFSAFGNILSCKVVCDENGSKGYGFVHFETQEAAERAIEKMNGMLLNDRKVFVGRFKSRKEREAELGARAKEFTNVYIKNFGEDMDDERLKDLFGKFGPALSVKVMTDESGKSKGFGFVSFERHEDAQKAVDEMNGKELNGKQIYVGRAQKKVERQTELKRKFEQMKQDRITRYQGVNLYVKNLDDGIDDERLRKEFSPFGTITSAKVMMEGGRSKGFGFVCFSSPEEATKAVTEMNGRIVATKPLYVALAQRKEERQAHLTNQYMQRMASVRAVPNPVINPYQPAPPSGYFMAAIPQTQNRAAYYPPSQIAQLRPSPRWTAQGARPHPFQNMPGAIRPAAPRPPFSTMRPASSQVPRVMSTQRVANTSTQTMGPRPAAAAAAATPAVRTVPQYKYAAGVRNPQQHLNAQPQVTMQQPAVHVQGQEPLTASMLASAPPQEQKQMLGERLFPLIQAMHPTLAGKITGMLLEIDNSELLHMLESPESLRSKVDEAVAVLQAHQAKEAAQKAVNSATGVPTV
MT1-MMP act inh: blocks activation of human MT1-MMP. P50281. HT1080 RFP-PRO-GFP cells, GFP/RFP ratio fluorescence, overnight; percent of plate control window, DMSO zero. GFP/RFP ratio change, % at 20 µM. actives 0.061% (n = 360,000);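 active means GFP/RFP ratio change of at least 30% with cell ATP level not reduced by more than half and red fluorescence within 50% of control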; further: strong numbers were not always called active
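Compound: 20 µM single dose, 1% DMSO / System: HT1080 RFP-PRO-GFP cells / Controls: DMSO and RFP-L50D-GFP cell wells / Read-out basis: GFP/RFP fluorescence ratio / Schedule: overnight compound exposure at 37 °C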
CSC inhib: cancer stem cell inhibition; inhibition, % at 7.5 µM; cancer stem cell-like cells viability, luminescence; actives 1.1% (n = 300,000);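 active means mean at 75% or more and at least half the replicates too; tested in HMLE shEcad cells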;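 further: 0% = median of negative and 100% = median of positive control wells; the first replicate is given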
Rce1 inh: inhibitors of yeast Ras-converting enzyme. yeast membranes, quenched prenylated peptide cleavage fluorescence. actives 0.27% (n = 290,000). calls only;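 active means fall in fluorescence gain of 50% or more versus controls, with final raw signal at or below 3038400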;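 further: plate controls were neutral control wells for no effect and wells lacking membranes for full effect; tested at 10 µM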
eIF4H inh retest: further read-out of eIF4H inh, marked with its call; inhibition, %; compound at 20 µM; confirmation average;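 mean of two retest wells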
PABP polyA inh retest: second read-out of PABP polyA inh, no call of its own (marks repeat the call); inhibition, %; compound at 20 µM; confirmation repeats;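 mean of two retest wells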
MT1-MMP act inh RFP: second read-out of MT1-MMP act inh, no call of its own (marks repeat the call); RFP signal change, %; measured here: RFP expression control read;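 0 = vehicle wells; hits needed this value within 50% of zero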
* marks the source's active call; other numbers are inactive results; i = inactive; / = not tested or not shown; + = active, no number; & = joins results of further samples; [ ] = remark or other dose. Hits appear at their usual frequency; 2.9% or so of the library scored in one or more.

SMILES	UUG fidelity	eIF4H inh	HIV Env fusion	PABP polyA inh	MT1-MMP act inh	MT1-MMP act inh RFP	CSC inhib	Rce1 inh	others
O=C(NCc1ccccc1)C1CC(=O)N(C2CCCCC2)C1 (centres undefined)	-11	1	-3	6	-12	1	-16	i
CCOC(=O)C1(Cc2ccccc2C)CCCN(C(=O)c2ccc(CSC)o2)C1 (centres undefined)	5	-15	20	9	-4	-3	-4	i
CC(Sc1ncnc2c1cnn2-c1ccccc1)C(=O)Nc1ccc(N2CCOCC2)cc1 (centres undefined)	-6	/	/	/	-7	-1	-13	/
Cc1c(C(c2cc3c(cc2Br)OCO3)c2c(C)n(C)n(-c3ccccc3)c2=O)c(=O)n(-c2ccccc2)n1C	12	6	/	-8	1	1	-1	i
O=S1(=O)CCOC[C@H](c2ccccc2)N1Cc1cccc(Cl)c1	-11	8	4	9	3	1	7	i
N#CCCN(C(=O)CSc1ccc2c(c1)OCCO2)c1ccc(F)cc1	-6	2	/	2	2	3	/	i
Cc1sc2nc(SCC(=O)NCCOCCO)nc(N)c2c1C	/	7	19	15	2	3	-1	i
C/C(=N\N=C1/SC(CC(=O)O)C(=O)N1c1ccccc1)c1ccc(C)cc1 (centres undefined)	-9	-7	-20	1	1	0	-9	i
COc1cc(OC)c(C2N(C)c3ccccc3N2C)cc1OC	/	-5	/	5	/	/	-16	i
COc1cccc(NC(=O)CN(C)C(=O)c2ccc(OCC3CCCO3)cc2)c1 (centres undefined)	6	/	-17	/	3	2	/	/
CCOC(=O)c1cn(CC)c2cc(Cl)c([N+](=O)[O-])cc2c1=O	-8	4	11	8	1	-1	2	i
COc1ccc(C(=O)/C=C/c2ccc(O)cc2)cc1	-16	-6	/	-5	5	-2	23	i
O=C(O)Cc1sc(-c2ccccc2)nc1-c1cccs1	/	7	-10	30	-2	2	/	i
Cc1cc(OCc2nnc(SC(C)C(=O)O)n2Cc2ccccc2)ccc1Cl (centres undefined)	/	-6	22	7	2	-1	/	i
Cc1ccc(-n2c(SCC(=O)NCc3ccco3)nnc2-c2cccnc2)cc1	-4	7	/	2	2	3	-6	i
Nc1nonc1-n1nnc(C(=O)N/N=C/c2ccc(Br)cc2)c1CN1CCOCC1	-3	-16	14	1	-4	0	-11	i
Cn1c(=O)c2cc(NC(=O)Nc3cccnc3)ccc2n1Cc1ccc(Cl)cc1	5	/	6	/	0	-3	/	/
CNCC[C@H](Oc1ccc(C(F)(F)F)cc1)c1ccccc1	-10	/	-23	/	1	1	17	/
C=CCn1cnc2c(oc3ccccc32)c1=O	-16	-6	-51	6	4	-2	-1	i
CN1CCN(CCCNC(=O)c2cc3c(=O)n(C)c4ccccc4c3s2)CC1	9	10	-18	28	12	12	6	+
Cn1c(Cc2ccccc2)nnc1SCC(=O)N1CCN(c2ccccc2)CC1	-16	2	/	9	2	-1	-5	i
CC1CCCCC1NS(=O)(=O)c1ccc(-n2cnnn2)cc1 (centres undefined)	-10	-8	/	-6	2	3	-11	i
O=Nc1c(O)n(Cc2c(Cl)cccc2Cl)c2ccccc12	/	-4	-32	-6	1	-3	-6	i
CCOC(=O)[C@@H]1[C@H]2COc3ccccc3[C@@H]2N2C(=O)N(c3ccc(C)cc3)C(=O)[C@]12C	-2	0	/	-6	1	-2	7	i
O=C(Nc1ccc2c(c1)CCC2)Nc1ccccc1F	-38	-7	-234	-3	-7	-3	12	i
[O-][n+]1c2ccccc2c2n1CCCN=C2c1ccc(Cl)cc1	-11	/	/	/	6	2	-12	i
CCCCCC(=O)NC(=S)Nc1ccc2oc(=O)ccc2c1	/	-2	10	-5	2	-4	/	i
CCn1c(SCC(=O)Nc2nc(C)c(C)s2)nnc1-c1cccnc1	-14	-2	/	2	3	4	-9	/
CC(C)CCNC(=O)CCc1nnc2n(CCCOC(C)C)c(=O)c3ccccc3n12	-12	-4	-3	-3	-2	-5	-7	i
Cc1ccc(C)c2[nH]c(=O)c(C(c3nnnn3C3CCCC3)N3CCOCC3)cc12 (centres undefined)	7	2	14	-1	1	-2	-16	i
Cc1noc(C)c1COc1ccccc1C(=O)N1CCN(S(=O)(=O)c2ccccc2Br)CC1	6	/	-8	/	-10	-6	/	/
COc1ccc(CNc2ncccn2)cc1OC	/	4	-5	-2	1	4	8	i
COc1cc(OC)cc(-c2c(C#Cc3ccsc3)c3cc(-c4ccc5c(c4)OCCO5)ccc3n2C)c1	-7	/	-6	/	5	0	0	/
O=C(N/N=C/c1ccc2c(c1)OCO2)c1cc(-c2ccco2)nc2ccccc12	-8	/	32	/	-6	-13	/	/
CC(C)CCNC(=O)C(c1ccc(O)cc1)N(C(=O)C1COc2ccccc2O1)c1cccc(O)c1 (centres undefined)	/	0	-27	7	-20	-13	/	i
Cc1ccc2cccc(S(=O)(=O)N3CCCc4ccccc43)c2n1	-17	3	2	-4	-4	-20	-13	i
C=C(C)/C=N/NC(=S)Nc1ccc(S(=O)(=O)N2CCOCC2)cc1	-21	-11	-1	5	4	2	4	i
COc1ccc(CCC(=O)OCC(=O)N2CCN(S(=O)(=O)c3ccc(C)cc3C)CC2)cc1	4	/	/	/	-1	2	-6	/
CCC1CCC2(CC1)NC(=O)N(CC(=O)NCc1ccc(Cl)cc1)C2=O (centres undefined)	-10	/	/	/	2	-4	12	/
Cc1noc(C)c1C(=O)OCC(=O)N1CCN(S(=O)(=O)c2ccc3ccccc3c2)CC1	-20	-2	2	3	4	0	-3	i
Cc1ccc(NC(=O)NC(=O)COc2c(F)c(F)cc(F)c2F)c(C)c1	-7	/	2	/	2	2	-14	/
CC(C)c1cc(N2CCC(=O)NC2=O)cc(C(=O)O)c1O	-9	-2	/	-2	1	7	-1	i
C=CCN(c1ccccc1)S(=O)(=O)c1cccc2cccnc12	/	15	2	8	1	-2	2	i
COc1cc2[nH]c3c(=O)n4c(nc3c2cc1OC)SCCC4	/	-1	-35	-6	2	-21	18	i
Cc1cccn2c(=O)c3cc(C(=O)NCCN4CCOCC4)n(C)c3nc12	-9	28	-6	11	2	1	-14	i

Gathered by group: the entries above with a thiophene ring, fused or not.
SMILES	UUG fidelity	eIF4H inh	HIV Env fusion	PABP polyA inh	MT1-MMP act inh	MT1-MMP act inh RFP	CSC inhib	Rce1 inh	others
Cc1sc2nc(SCC(=O)NCCOCCO)nc(N)c2c1C	/	7	19	15	2	3	-1	i
O=C(O)Cc1sc(-c2ccccc2)nc1-c1cccs1	/	7	-10	30	-2	2	/	i
CN1CCN(CCCNC(=O)c2cc3c(=O)n(C)c4ccccc4c3s2)CC1	9	10	-18	28	12	12	6	+
COc1cc(OC)cc(-c2c(C#Cc3ccsc3)c3cc(-c4ccc5c(c4)OCCO5)ccc3n2C)c1	-7	/	-6	/	5	0	0	/

Following part.
SMILES	UUG fidelity	eIF4H inh	HIV Env fusion	PABP polyA inh	MT1-MMP act inh	MT1-MMP act inh RFP	CSC inhib	Rce1 inh	others
COc1ccc(C(CNC(=O)COc2ccccc2C#N)N2CCOCC2)cc1 (centres undefined)	4	10	/	-4	-1	3	-5	i
CC(=O)Nc1ccccc1C(=O)N1CCc2ccccc21	-8	-4	/	4	2	7	-8	i
O=C(CS(=O)CC(=O)N(c1ccccc1)C(C(=O)NC1CCCC1)c1cccs1)Nc1ccc(F)cc1 (centres undefined)	-3	-14	-21	-8	3	4	-10	i
Cc1cc(C)c(NC(=O)CNC(=O)CN2C(=O)NC3(CCCc4ccccc43)C2=O)c(C)c1 (centres undefined)	/	/	1	/	4	-4	-6	i
CC1CCC(NC(=O)c2ccc(Br)o2)CC1 (centres undefined)	-21	/	-9	/	1	5	/	/
CSc1nnc(-c2ccccc2N=Cc2c(C)[nH]n(-c3ccc4ccccc4c3)c2=O)c(=O)[nH]1	/	-8	/	8	2	-1	32	i
Cn1c(COc2ccccc2)nnc1SCc1cc(=O)[nH]c2ccccc12	-21	12	1	11	1	2	-11	i
CS(=O)(=O)n1nc(-c2ccccc2)nc1N	/	-11	/	-3	2	3	-4	i
CCn1c(SC/C=C/c2ccccc2)nnc1-c1cccs1	19	-9	-111	1	0	-6	-1	/
CCCSC1=N/C(=C\c2ccsc2)C(=O)S1	-26	4	/	-8	-2	8	3	i
O=C(Nc1ccccc1Cl)C1Cc2ccccc2O/C1=N\O (centres undefined)	/	45	-13	2	-3	-3	4	i
CC(=O)c1sc(-c2ccccc2Cl)nc1C	/	-4	7	-18	2	2	/	i
Cc1ccc(O)c(-c2cc(C(=O)NCc3ccccc3)[nH]n2)c1	-15	-9	-126	-10	16	5	11	i
O=C(Nc1nccs1)C1=COCCO1	-14	/	8	/	1	3	-7	/
CC(=O)N1CCN(c2ccc(NCc3ccc(Br)o3)cc2)CC1	4	/	-7	/	6	3	12	/
CCOC(=O)c1sc(N(C)C(C)=O)nc1C	-4	-2	0	0	0	-2	3	i
NS(=O)(=O)c1ccc(CCNC(=O)c2cc3ccccc3s2)cc1	-17	3	6	4	-8	-3	8	i
O=C(NCc1ccccn1)c1nn(-c2ccccc2)c(=O)c2ccccc12	/	90	-22	-1	0	-1	-7	i	eIF4H inh retest=9;PABP polyA inh retest=14
NNC(=O)c1csc(-c2ncc(C(F)(F)F)cc2Cl)n1	-20	-16	-14	-3	6	0	8	i
COc1ccc(Cl)cc1CC1(C)C(=O)Nc2ccc(-c3ccccc3OC)cc21 (centres undefined)	4	/	92*	/	6	-8	/	/
O=C(COc1ccccc1)Nc1ccc2oc(=O)ccc2c1	-13	-13	-5	1	1	-3	-12	i
CCOc1ccc2c(c1)/C(=C(\C(Cl)=C(Cl)Cl)[N+](=O)[O-])N2	/	2	2	-4	-13	3	0	i
[O-]/[N+](=C/c1cccnc1)c1ccc(Br)cc1	-15	1	/	-2	-2	1	16	i
COc1cccc(NC(=O)Cn2cnc3sc(C)c(S(=O)(=O)N4CCN(C)CC4)c3c2=O)c1	-26	-14	-35	2	2	6	-16	i
COc1ccc(C2(C(=O)NCCCN3CCOCC3)CCOCC2)cc1	-13	7	-62	15	4	8	-8	i
CC1CSc2nnc(CCc3ccccc3)n21 (centres undefined)	-14	-2	4	-3	1	1	2	i
O=C(CCCOc1ccc(Cl)cc1Cl)N/N=C/c1ccccc1O	/	18	51	16	-5	-4	168*	i
O=C(NC1CC1)c1cc(F)c(F)cc1Cl	-14	-11	-64	1	-3	3	8	i
CC(C)NC(=O)N(C)C[C@H]1Oc2ccc(NC(=O)Nc3ccc(C(F)(F)F)cc3)cc2C(=O)N([C@H](C)CO)C[C@@H]1C	5&2	/	-8[16.7 µM]	/	4	-5	15	/
CS(=O)(=O)N(CC(=O)Nc1ccccc1)c1cccc(Cl)c1Cl	/	-1	0	0	1	-2	-8	i
Cc1ccc(Cl)cc1N1CCN(C(=O)C2CCC(=O)N2C(C)C)CC1 (centres undefined)	-15	11	-6	6	1	3	-1	i
COc1ccccc1N1CCN(C(=O)CSc2nc3ccccc3c(=O)n2CC2CCCO2)CC1 (centres undefined)	/	-1	-35	4	6	-1	-4	i
Cc1ccc(OCCn2c(C)nc3ccccc32)cc1	-12	2	3	-6	-2	-18	4	i
Cn1c(C(=O)NCC2CCCO2)cc2c(=O)[nH]c3ccccc3c21 (centres undefined)	1	1	-53	-4	9	0	-11	i
CCOc1ccc2nc(NC(=O)C3CCCN(S(=O)(=O)c4cccs4)C3)sc2c1 (centres undefined)	-12	9	/	-11	-8	-14	/	i
CC1CCC(NC(=O)c2ccc3snnc3c2)CC1 (centres undefined)	-17	-16	-30	-1	-1	0	-2	i
CC(=O)c1c(C)nn(CC(=O)NC2CCCN(Cc3ccc(CC(C)C)cc3)C2)c1C (centres undefined)	8	-7	11	3	1	-4	0	i
